# Menin-MLL FL inh = inhibitors of human menin-MLL interaction, wild-type MLL peptide; Fluorescence polarization, fluorescein-MLL peptide displacement from menin; FP activity change, % at 61.4 µM; 290,000 tested, under 10 active; AID 1766; inconclusive = falling polarisation curve, or a change in total fluorescence; inactive = total fluorescence flat and polarisation flat or rising; no compound was filed as active; the % refers to the polarisation; negative = inhibition;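 further: % of control where 0% means no effect; inhibitors lower the polarisation; unlabelled MLL peptide was the positive control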
# TRPML1 blocker = blocks the human TRPML1 channel; Q9GZU1; TRPML1-inducible cells, Ca2+ dye fluorescence, FDSS; stronger effect = lower value; inhibition of EC80 agonist-evoked calcium signal; activity change, negative = inhibition, % (concentration not given with the values); 0.02% of 390,000 active; AID 624415; in the data active means activity change below about -50%; inconclusive means about -30% to -50%; inactive means above about -30%;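 further: stimulus is agonist 54-4 at its EC80 concentration; on the % scale 0 is the no-effect control and ±100 the full control effect; compound concentration not given in the record; the text of the record puts the active cut at -80%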
# Target sequence (Q9GZU1 whole entry, looked up): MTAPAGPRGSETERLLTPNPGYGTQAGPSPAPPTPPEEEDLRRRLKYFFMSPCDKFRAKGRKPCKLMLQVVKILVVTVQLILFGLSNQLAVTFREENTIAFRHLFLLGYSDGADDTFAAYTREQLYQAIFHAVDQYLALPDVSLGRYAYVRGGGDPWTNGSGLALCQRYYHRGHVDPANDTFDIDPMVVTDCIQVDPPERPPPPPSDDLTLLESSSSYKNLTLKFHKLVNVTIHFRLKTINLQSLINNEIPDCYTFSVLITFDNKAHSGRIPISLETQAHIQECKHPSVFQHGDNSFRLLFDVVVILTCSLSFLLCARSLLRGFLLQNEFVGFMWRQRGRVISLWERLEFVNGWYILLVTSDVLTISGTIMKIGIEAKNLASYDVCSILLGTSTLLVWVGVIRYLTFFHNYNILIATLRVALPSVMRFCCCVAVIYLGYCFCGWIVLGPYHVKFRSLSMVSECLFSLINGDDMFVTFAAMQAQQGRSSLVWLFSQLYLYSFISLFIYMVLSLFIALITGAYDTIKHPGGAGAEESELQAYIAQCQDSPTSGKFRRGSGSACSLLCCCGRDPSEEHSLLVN
#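 TRPML1-DL cells, Tet-induced overnight (~16 h, 37 °C) at 1,500 cells/well, were loaded with Ca8 no-wash dye plus quencher for 45-90 min at room temperature. Compounds were pinned during FDSS kinetic reading; agonist 54-4 at EC80 (4 uM final) then added.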
# TRPV1 potentiator = human TRPV1 potentiation; Q8NER1; TRPV1-expressing cells, Fluo-8 calcium influx, capsaicin EC20 potentiation; host cell line not named in the record; control for the full effect not named in the record; potentiation, % at 8.33 µM; 0.02% of 320,000 active; AID 540277; active means potentiation above 80%; inconclusive means 30% to 80%; inactive means below 30%; further: 0% is about no effect
#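 Fluo-8 calcium influx in TRPV1-expressing cells, kinetic read (ex 480/em 520 nm). Compound added and read 3 min for agonist activity, followed by capsaicin at EC20 final and 2 min further read for enhancement.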
# gsp agonist = activates gsp, the McCune-Albright syndrome mutation | gsp mutant cells, cAMP HTRF, 30 min; control for the full effect not named in the record | Potency, µM (doses to about 76.9 µM), without a hit: at the highest dose activation (cAMP increase), hits mostly activators | 0.13% of 340,000 active | AID 624287; active = well fitted activation curve with a large enough effect; inconclusive = small, poorly fitted or top-dose-only effect, or another doubt; inactive = no such curve, though single readings can be large or run the other way; cell line not stated here;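 further: phosphodiesterase inhibitor Ro 20-1724 added with compounds to block cAMP breakdown; potency means the concentration at half of the fitted maximal effect; nearly all actives have a fitted effect of over 60% in size; about a fifth of the inactives were tested at one dose only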
#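 Cells in DMEM/10% FBS with G418 were pretreated with compounds in DMSO plus […] (300 uM stock) for 30 min at 37C. cAMP was measured by HTRF (cAMP-d2 plus anti-cAMP antibody-K) after 30 min at room temperature.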
# Sfp PPTase inh = Sfp phosphopantetheinyl transferase inhibition | Biochemical Sfp PPTase activity, qHTS | Potency, µM, for the others: max response, negative = inhibition, most hits filed as inhibitors | 3.5% of 310,000 active | Q9F4F7 | AID 1490; active means well fitted inhibition curve with a large enough effect; inconclusive means small, poorly fitted or top-dose-only effect, or another doubt; inactive means no such curve, though single readings can be large or run the other way;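 further: the enzyme is Sfp with the accession as filed and its product quenches rhodamine fluorescence; potency means the concentration at half of the fitted maximal effect; 0% = enzyme reaction without inhibitor and -100% = no enzyme wells; top concentration of the series not given in the record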
#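 Compounds were incubated with enzyme (final 15 nM) for 15 min at room temperature before substrate addition started the reaction. Fluorescence at 525 nm excitation, 598 nm emission was recorded immediately and after 30 minutes.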
# ClpP mod = qHTS Assay for Activators of ClpP. ATP-dependent Clp protease proteolytic subunit (Bacillus subtilis (strain 168)), P80244. purified B. subtilis ClpP, FRET peptide cleavage, 20 min. Potency, µM (series often up to 57.5 µM), for inactives: at the highest dose activity change, negative = active. 1.9% of 340,000 active. AID 651965, 2013; active = well fitted falling curve with a large enough effect; inconclusive = small, poorly fitted or top-dose-only effect; inactive = no such curve, though single readings can be large or run the other way; further: potency means the concentration at half of the fitted maximal effect; the source files actives as falling curves though it sought activators and does not explain the sign; nearly all actives have a fitted effect of over 65% in size; many hits overshoot -100%
# Target sequence (P80244 whole entry, looked up): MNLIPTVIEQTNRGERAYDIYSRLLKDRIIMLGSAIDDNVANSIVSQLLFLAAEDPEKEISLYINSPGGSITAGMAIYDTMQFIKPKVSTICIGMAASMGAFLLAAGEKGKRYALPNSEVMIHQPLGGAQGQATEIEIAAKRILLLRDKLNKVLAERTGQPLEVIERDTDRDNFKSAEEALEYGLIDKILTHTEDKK
#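 ClpP 10 microg/mL final, pH 8 Tris/KCl buffer with BSA, glycerol, Tween-20; compound pinned in; FRET-FV substrate; RT 20 min; Ex320/Em430; ΔFRET vs ADEP 5.8 microM, DMSO, no enzyme.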
# gsp antag = antagonists of gsp mutant (McCune-Albright syndrome); Potency, µM (highest dose often 76.9 µM), without a hit: top-dose activity change, negative = inhibition, actives largely listed as inhibitors; gsp-mutant cells, cAMP HTRF, 30 min; control for the full effect not named in the record; 0.4% of 340,000 active; active = falling curve of any shape with a large fitted effect; inconclusive = falling curve, mostly with a smaller effect; inactive = flat or rising curve; cell line not stated here;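 further: intracellular cAMP measured with PDE inhibitor Ro 20-1724 present during compound exposure; potency means the concentration at half of the fitted maximal effect; on the % scale 0 is the no-effect control and ±100 the full control effect; nearly all actives have a fitted effect of over 65% in size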
#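 Cells in G418 medium, seeded 16-24 h, 37C; buffer exchange to DPBS + 1 mM CaCl2, 0.5 mM MgCl2, 0.05% BSA; cpds in DMSO + […] (300 uM stock), 30 min 37C; HTRF cAMP detection.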
# The depositor's hits bear a star; ? = inconclusive; nt = not tested or not shown; & = joins results of further samples; [ ] = another dose, or the depositor's remark.
SMILES,Menin-MLL FL inh,TRPML1 blocker,TRPV1 potentiator,gsp agonist,Sfp PPTase inh,ClpP mod,gsp antag
COc1ccc(CN(C)CC(=O)Nc2ccc(SC(F)F)cc2)cc1OC,2.3,7,-20,-7%[15.4 µM],4%,nt,?
Cc1ccc(C(=O)NCC(=O)OCC(=O)Nc2cc(S(=O)(=O)N3CCOCC3)ccc2C)cc1,nt,-7,1,15%,nt,0.9%,2%
CCOc1ccccc1-n1c(C)nc2cc(C(=O)O)ccc21,-6.6,-10&2,9,1%[15.4 µM],15%,-1.1%,-14%
COc1cc(NC(=O)c2ccc(Cl)cc2Cl)ccc1NC(=O)c1cccs1,3.9,-23,23,8%[15.4 µM],15%,nt,4%
CC1CCN(c2c(NCC3CCC(C(=O)NCc4ccccc4Cl)CC3)c(=O)c2=O)CC1 (configuration not stated),7.0,16,-15,?,8%,2.4%,?
O=C(CNC(=O)c1ccc(Br)cc1)c1ccc(Br)cc1,1.4,-3,25,6%,2%,0.3%,8%
CC(=O)Nc1ccc(S(=O)(=O)N2CCc3ccccc3C2CC(=O)O)cc1 (configuration not stated),nt,19,-5,-3%[15.4 µM],11%,-0.6%,6%
O=C(O)Cn1cc(/C=N/NC(=O)c2cc3cc(Br)ccc3o2)c2ccccc21,1.1,1,-1,-7%[15.4 µM],-19%,nt,-14%
O=C(CN1C(=O)NC2(CCOc3ccccc32)C1=O)c1ccc(Br)cc1 (configuration not stated),nt,1,4,-8%,0%,-1.3%,-5%
COc1cc(SC)ccc1C(=O)Nc1nc(C)cc(C)n1,-5.4,0,-1,14%,10%,-21%,0%
CCCCN(c1ccccc1)c1ncnc2nc[nH]c12,0.4,1,13,?,-18%,-1.5%,-8%
O=C1NCC(O)=C1C=Nc1ccccc1O,2.4,22,nt,-4%,19%,1.4%,-1%
O=C(Nc1ccc(NC(=S)NC(=O)c2cccs2)cc1)c1ccccc1,0.6,28,7,-31%[inhibitor],4%,-0.4%,-5%
O=C(Nc1ccc2c(c1)OCCO2)c1ccc(Br)o1,0.6,16,1,12%,-13%,-1.5%,-1%
CC1C(c2ccccc2)N(C)C(c2ccccc2)CC1(O)c1ccccc1 (configuration not stated),-0.7,-14,-13,2%,9%,-2.1%,-3%
COc1ccc(C2=NS(=O)(=O)N(C)C(C(=O)NCc3ccccn3)=C2)cc1OC,-2.5,4,0,-23%,17%,-0.4%,0%
O=C1CN(C(=O)COC(=O)Cc2ccccc2F)c2ccccc2N1,nt,30,nt,-25%,nt,-0.9%,1%
O=C(CSc1ncccn1)Nc1ccc2c(c1)OCO2,nt,1,nt,-29%,nt,nt,-5%
CC(C(=O)Nc1ccccc1)N(c1cccc(Cl)c1)S(C)(=O)=O (configuration not stated),5.9,16,-3,10%,6%,nt,-3%
Cc1csc(CCc2nc(C)cs2)n1,4.4,-17,?,?,18%,0.7%,1%
CCOc1cc2c(cc1OCC)C(c1ccc(C(=O)O)cc1)NCC2 (configuration not stated),2.2,-1,-4,-22%,20%,nt,16%
CC1(C)CC(=O)c2cnc(NC(=O)C3CCCC3)nc2C1,-1.2,5,-4,13%,19%,0.6%,3%
CCN(CC)C(=O)COc1ccc(S(=O)(=O)N2CCCC2)cc1,0.4,-6,4,-1%,10%,-0.6%,2%
CCCC(=O)Nc1c2c(nn1-c1ccccc1)CSC2,3.3,-5,4,-6%,19%,2.8%,-5%
O=C(c1ccco1)N1CCN(C(=O)c2ccc(-c3ccccc3Cl)o2)CC1,nt,14,-16,-11%,nt,-1.9%,-14%
# (next part)
SMILES,Menin-MLL FL inh,TRPML1 blocker,TRPV1 potentiator,gsp agonist,Sfp PPTase inh,ClpP mod,gsp antag
NNS(=O)(=O)c1ccc2c(c1)Cc1cc(S(=O)(=O)NN)ccc1-2,-26,23,-9,9%,-19%,nt,4%
CSc1ccc(Cl)c(C(=O)Nc2ccc(Cl)cn2)c1,3.8,51,-12,4%,13%,-3.7%,1%
O=C(Cc1csc(-c2ccccc2)n1)NCc1cccs1,2.4,11,-6,-5%[15.4 µM],-8%,nt,11%
Cc1cc(C(=O)NNC(=O)c2ccc(C)s2)c(C)o1,nt,27,-1,-1%[15.4 µM],nt,nt,13%
COc1cc(NC(=O)CSc2nnc(-c3ccncc3)o2)cc(OC)c1OC,nt,7,4,2%,4%,-0.5%,5%
CCOc1ccc2nc(NC(=O)CSc3nc4cccnc4n3C)sc2c1,1.0,4,-5,7%[15.4 µM],-20%,0.6%,-5%
CCCCOC(=O)C[N+](C)(C)CCOC1CC2CCC1(C)C2(C)C (configuration not stated),7.3,-4,-1,?,13%,nt,7%
Cc1cccc(OC(C)C(=O)Nc2cc(Cl)ccc2-n2cncn2)c1 (configuration not stated),nt,-10,-10,?,nt,-1.3%,-9%
CCN(CC)C(=O)C1CCCN(C(=O)Nc2ccc(NC(=O)N3CCCC(C(=O)N(CC)CC)C3)cc2)C1 (configuration not stated),0.7,15,24,-8%,13%,-0.8%,-1%
CCN(CC)S(=O)(=O)c1cccc(C(=O)N/N=C/c2cccc(O)c2O)c1,16,-5,?,11%,?,-1.3%,0%
COc1cc(C(=O)N(C)C2CCCCC2)cc(OC)c1OC,nt,-23,nt,-48%[inhibitor],nt,2.1%,nt
COc1ccccc1N1CCN(CC(=O)Nc2sccc2C#N)CC1,3.7,-26,19,0%,10%,1.5%,0%
S=c1[nH]nc(-c2ccccn2)n1/N=C/c1cccc(Cl)c1,-8.4,3,1,19%,1%,nt,-21%
Cc1cccnc1NC(=O)c1ccc(S(=O)(=O)N2CCC(C)CC2)cc1,nt,1,-7,-5%,nt,-2.8%,5%
Oc1ccccc1C=NCCCCCCN=Cc1ccccc1O,6.5,26,-8,-1%[15.4 µM],19%,nt,5%
O=C(O)c1ccc(Cl)c(S(=O)(=O)N(Cc2ccccc2)c2ccccc2Cl)c1,-2.3,19,7,5%,12%,-1.1%,-3%
COc1ccc(S(=O)(=O)NCC(=O)N(CC(=O)NCC2CCCO2)c2cc(C)ccc2C)cc1 (configuration not stated),0.2,-6,-16,-31%,12%,1.3%,3%[15.4 µM]
C=CCc1ccccc1OCCOc1ccc([N+](=O)[O-])cc1/C=N/NC(N)=O,-2.6,49,-3,11%[15.4 µM],9%,nt,0%
COc1ccccc1/C=C(/C(=O)OCC(=O)Nc1cc(C)ccc1C)c1ccccc1,3.2,-7,7,-4%,12%,nt,-16%
O=C1CCC/C(=N\NC(=O)c2ccc(CSc3cccc4cccnc34)cc2)C1,-2.7,34,?,-5%,-9%,3.7%,-1%
COc1ccc(N2CC(C)Cn3c2nc2c3c(=O)n(Cc3ccc(F)cc3)c(=O)n2C)c(OC)c1 (configuration not stated),5.6,19,7,17%,?,-10%,-12%
Cc1ccc(C(=O)NCCc2ccccc2)cc1,0.2,nt,-12,-37%[inhibitor],12%,-3.1%,-2%
COc1cccc(CNCCSc2nnnn2C)c1,3.0,18,-1,-44%,-7%,0.3%,9%
Cc1ccc(C(C[N+](=O)[O-])c2c(N)n(C)c(=O)n(C)c2=O)cc1 (configuration not stated),-1.2,-13,?,11%,4%,1.0%,8%
Cc1c(Br)c(C(F)(F)F)nn1CC(=O)NCCCn1ccnc1,-1.0,13,5,11%[15.4 µM],11%,0.3%,-2%
# Carrying on.
SMILES,Menin-MLL FL inh,TRPML1 blocker,TRPV1 potentiator,gsp agonist,Sfp PPTase inh,ClpP mod,gsp antag
CN(CC(=O)NCc1ccco1)S(=O)(=O)c1ccc2c(c1)c(=O)n(C)c(=O)n2C,4.3,6,9,38%,8%,-7.4%,-9%
CC(=O)Nc1ccc(NC(=O)c2ccco2)cc1,4.8,11,16,-3%,17%,-0.7%,6%
Cc1ccc(S(=O)(=O)NCC(=O)N(CC(=O)NCC2CCCO2)c2ccc(Cl)cc2)cc1 (configuration not stated),0.5,-24,3,5%[15.4 µM],22%,nt,-11%
COCCNC(=O)CCn1c(=O)oc2ccccc21,0.8,43,2,1%,19%,1.6%,1%
Cn1c(SCC(=O)Nc2cccc(F)c2)nnc1-c1cccnc1,-0.1,4,-1,-7%,4%,-1.1%,5%
Cc1cccc(OCCNc2cc(N3CCOCC3)ccc2[N+](=O)[O-])c1,2.8,8,11,6%,13%,0.7%,-16%
Cc1ccc(-c2nn3c(=O)c(C)nnc3s2)cc1,2.7,15,-5,?,11%,-3.3%,13%
O=C(Nc1nc(=O)n(C(=O)C2CC2)s1)c1ccccc1,2.7,11,-5,-18%,-6%,1.0%,?
O=C(c1ccc2c(=O)n(-c3ccccc3)c(=O)[nH]c2c1)N1CCCCC1,-1.9,-7,2,?,21%,-21%,-7%
NCc1ccccc1COc1ccccc1,-1.1,6,-11,-34%[inhibitor],9%,1.9%,10%
O=C(CN1CCN(Cc2ccccc2Cl)CC1)N/N=C/C=C\c1ccccc1[N+](=O)[O-],1.9,-3,4,11%,8%,-2.4%,-6%
CSc1ccc(C(=O)C2CCCN(C(=O)CCCn3cncn3)C2)cc1 (configuration not stated),1.5,-3,10,4%,10%,-2.7%,-3%
O=C(c1ccc(Br)o1)N1CCc2ccccc21,-3.1,nt,4,nt,11%,nt,nt
Cc1cc(C(=O)CCC(=O)Nc2ccc(S(N)(=O)=O)cc2)c(C)s1,nt,29,-10,3%,nt,-1.8%,9%
CC(C)N(C(C)C)S(=O)(=O)c1ccc(Cl)nc1,4.3,-6,-14,-3%[15.4 µM],14%,nt,10%
CCCOc1ccc(CCC(=O)N/N=C/c2ccncc2)cc1,-1.6,nt,-14,-5%,7%,0.7%,-3%
CCCCc1nnc(NC(=O)CC(=O)Nc2ccccc2C(=O)O)s1,1.6,-10,4,-19%,1%,-23%,5%
Cc1cccc(NC(=O)Nc2cccc(F)c2)n1,2.5,-14,-16,-27%,14%,-2.8%,10%
Cc1cccc(NC(=O)NCc2ccc3c(c2)OCO3)c1C,-1.6,29,-3,2%[15.4 µM],-3%,nt,-3%

# Random draw from the library (roughly 4.9% active in at least one column).
